# Assay outcomes deposited in PubChem BioAssay by several laboratories.
# Beta cell apopt: blocks beta cell apoptosis; INS-1E cytokine-induced death, ATP luminescence, 48 h; percent of positive-control rescue, neutral wells zero; protection from apoptosis, % (test concentration not listed); 300,000 tested, 0.8% active;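 active = all replicates at 75% or more, or half of them and the mean; inconclusive = half reach 75% but not the mean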;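 also: 0% = cytokine-treated negative control wells and 100% = positive control rescue; higher means more ATP so stronger rescue from cytokine killing; wells of about 40 µL received 100 nL stock; the first replicate is given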
# B2AR ag: activates human beta-2 adrenergic receptor causing internalization | Am2.2-beta2AR cells, FAP receptor internalization, flow cytometry; reference of the scale not given here | response, % (no concentration beside the values) | 340,000 tested, 0.43% active | AID 504454;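 active = response above a set limit, near 3 SD of response in nonfluorescent compounds, cut at about 42% in these data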;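 also: stock transfer was 100 nL into about 11 µL; a reference agonist was the positive control; negative values mostly stem from fluorescent compounds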
# Target sequence (P07550 whole entry, looked up): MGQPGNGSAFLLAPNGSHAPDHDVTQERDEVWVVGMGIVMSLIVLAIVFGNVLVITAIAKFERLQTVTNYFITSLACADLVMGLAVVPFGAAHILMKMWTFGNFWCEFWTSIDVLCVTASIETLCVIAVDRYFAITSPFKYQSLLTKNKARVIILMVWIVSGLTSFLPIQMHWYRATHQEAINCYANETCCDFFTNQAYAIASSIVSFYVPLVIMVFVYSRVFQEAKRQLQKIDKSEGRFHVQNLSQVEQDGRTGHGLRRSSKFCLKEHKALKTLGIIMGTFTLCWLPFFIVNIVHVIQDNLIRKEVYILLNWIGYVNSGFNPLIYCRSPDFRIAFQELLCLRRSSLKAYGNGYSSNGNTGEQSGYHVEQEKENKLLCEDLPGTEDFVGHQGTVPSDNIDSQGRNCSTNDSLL
# Calb FLC: C. albicans growth modulation with fluconazole; C. albicans CaCi-2 (fluconazole-resistant clinical isolate) + fluconazole, Alamar Blue growth, 48 h; 300,000 tested, 0.57% active; AID 1979; growth inhibition, % (no concentration beside the values);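 active = most replicates above 75%; inconclusive = exactly half above 75%; inactive = most below 75%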;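 also: all wells also contain fluconazole at 8 µg/ml as a sub-toxic cotreatment; 0% = median of DMSO wells and 100% = median of geldanamycin control wells; wells of about 8 µL received 7.5 nL stock; the first replicate is given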
# Bfl-1 A1 inh: inhibitors of the anti-apoptotic protein A1, read as caspase activation; MEF A1-2A-BIM cells, Caspase-Glo 3/7 luminescence, 3 h; percent of clofoctol response, vehicle zero; caspase activation, % (no concentration beside the values); 330,000 tested, 0.066% active; AID 2462;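 active = over half of replicate activation scores above 10%, or exactly half above 10 with the replicate mean above 10; inconclusive = replicate mean below 10 yet half the replicates above 10; inactive = over half of replicates below 10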;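 also: wells of about 30 µL received 50 nL stock; many hits fall short of the cut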
# UCH37 DUB inh: human UCH37 deubiquitinating enzyme inhibition; Q9Y5K5; purified proteasome/UCH37, Ub-AMC cleavage fluorescence; inhibition, % (test concentration not listed); 330,000 tested, 0.33% active; AID 588478;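 active = mean of two replicates above 20%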;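 also: 0% = compound-free wells with enzyme and 100% = wells lacking proteasome; stock transfer was 100 nL into about 20 µL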
# Target sequence (Q9Y5K5 whole entry, looked up): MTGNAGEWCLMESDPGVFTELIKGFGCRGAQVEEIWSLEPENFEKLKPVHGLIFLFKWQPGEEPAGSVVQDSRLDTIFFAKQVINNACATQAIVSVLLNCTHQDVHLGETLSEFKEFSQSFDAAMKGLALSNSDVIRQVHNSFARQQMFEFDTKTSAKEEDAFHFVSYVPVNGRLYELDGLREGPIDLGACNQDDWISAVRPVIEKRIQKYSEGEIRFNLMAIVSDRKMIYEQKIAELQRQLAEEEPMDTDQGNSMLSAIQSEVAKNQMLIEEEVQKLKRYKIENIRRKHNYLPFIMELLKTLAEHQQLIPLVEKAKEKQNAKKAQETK
#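 Schedule: 30 min plus 25 min, room temperature / Material: human UCH37 within purified proteasomes / Technique: AMC fluorescence intensity at 355/460 nm / Buffer or medium: pH 7.4 Tris-HCl (50 mM) with ovalbumin, ATP-MgCl2, DTT / Controls: wells without proteasome as full block, compound-free enzyme plus substrate as uninhibited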
# RanGTP-Impb inh: inhibitors of RanGTP-importin-beta interaction, primary screen, biochemical, FRET, CFP-Ran, YFP-importin-beta, homogeneous | cell-free CFP-Ran/YFP-importin-beta FRET ratio | inhibition, % (test concentration not listed) | 300,000 tested, 1.1% active | AID 2216;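 active = most replicates above 15%; inconclusive = exactly half above 15%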;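 also: 0% = DMSO wells and 100% = Ran loaded with GDP instead of GTP; wells of about 40 µL received 100 nL stock; the first replicate is given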
# T cruzi inh: blocks replication of Trypanosoma cruzi. T. cruzi beta-gal in NIH3T3, luminescence, 90 h. inhibition, % (test concentration not listed). 300,000 tested, 1.4% active. AID 1885;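 active = mean inhibition across valid replicates above about 55%, limit read from the data; inconclusive = mean below that limit but half or more replicates reach it; inactive = mean below it, under half of replicates reach it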;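 also: signal also drops with host cell toxicity which is not excluded here; 0% = plate median of DMSO wells and 100% = zero luminescence signal; higher percent means less beta-gal luminescence so fewer parasites; stock transfer was 50 nL into about 50 µL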
# LANA-H2A inh: blocks KSHV LANA binding to histone H2A/H2B. Q9QR71. cell-free LANA-H2A/H2B peptide, fluorescence polarization. inhibition, % (concentration not given with the values). 320,000 tested, 0.6% active; in the data active = inhibition mostly above about 10%, no sharp cut-off; inactive = mostly below about 6.7%;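 also: stock transfer was 7.5 nL into about 10 µL; 0% = median of vehicle wells and 100% = median of positive control wells; one replicate is shown; the record names a cut of 25% in any replicate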
# An asterisk follows results filed as active; i = inactive; ? = inconclusive; / = not tested or not shown.
SMILES,Beta cell apopt,B2AR ag,Calb FLC,Bfl-1 A1 inh,UCH37 DUB inh,RanGTP-Impb inh,T cruzi inh,LANA-H2A inh
COc1cc(/C=C2/SC(=S)N(Cc3ccccc3)C2=O)cc(Cl)c1O,38.0,i,-7.4,-0.4,/,-10.7,1.0,-10.5
Cc1ccc(CNC(=O)CN(C)C2=NS(=O)(=O)c3ccccc32)cc1,-7.8,-2.1,/,-0.2,-1.8,/,/,6.2
O=C(CCc1nc(-c2ccccc2)no1)Nc1cc(C(F)(F)F)ccc1Cl,3.0,-8.3,-17.6,-0.6,5.8,-1.9,11.7,0.7
COc1ccc(C(=O)NCCNC(=O)c2ccccn2)cc1,-0.1,-0.9,-0.8,-0.1,4.1,23.4,-0.1,-0.8
CCOc1ccc(NC(=O)Cc2nnc(SCC(=O)N3CCOCC3)n2C)cc1,-12.8,3.5,1.8,-0.8,3.4,0.8,-5.8,0.3
COc1ccc(/C=N\NC(=O)/C(=C\Nc2nccc(C)n2)NC(=O)c2ccccc2)cc1,-6.3,7.7,4.9,1.0,/,5.1,8.2,-2.9
CO/N=C/C1C(=O)NN=C1c1ccccc1 (stereo unspecified),-4.0,-4.1,-12.4,0.4,/,-2.3,-12.9,-3.7
O=C(Nc1ccc2c(c1)CCCN2C(=O)c1cccs1)c1c(F)cccc1Cl,1.9,6.6,13.1,-0.3,6.4,7.4,9.5,0.8
CC(C)Nc1nc2nonc2nc1Nc1ccccc1,2.9,1.2,0.5,-0.1,7.3,-0.1,-4.5,0.8
Cc1ccc(O)c(C(CC(=O)NC(C)C)c2ccccc2)c1 (stereo unspecified),-10.9,14.6,-8.9,-0.5,1.3,-0.2,-7.9,-2.4
CCc1nc2sc3c(=O)[nH]cnc3c2c2c1CSC(C)(C)C2,4.3,7.6,27.1,1.0,2.3,-0.6,9.4,-2.4
Cc1onc(-c2ccccc2Cl)c1C(=O)N1CCN=C1SCc1cccnc1,-5.0,-0.8,3.2,0.9,2.3,-1.5,-15.5,2.7
COc1ccc(/C=N\NC(=O)COc2ccc(C(C)(C)C)cc2)cc1Cn1nc(C)cc1C,/,-2.1,1.8,-0.1,/,-7.1,0.1,5.0
COc1ccc(Cl)cc1NC(=S)N1CCN(c2ncccn2)CC1,0.1,2.5,23.4,0.1,-2.1,0.8,-17.8,-2.8
COc1ccc(-c2ocnc2C(=O)Nc2ccccc2N2CCCCC2)cc1,-2.6,-8.8,-0.6,0.6,-14.7,-1.2,22.0,-6.2
Cc1ccc(/C=N/N2C(=O)C3C(C2=O)C2C=CC3C23CC3)o1 (stereo unspecified),-6.0,-11.9,3.2,0.8,/,-3.4,-8.4,5.7
COc1ccc(S(=O)(=O)Nc2cccc3c2O[C@H](CN(C)C(=O)Nc2ccc(C(F)(F)F)cc2)[C@@H](C)CN([C@H](C)CO)C3=O)cc1,-6.7,-0.8,/,-1.0,-1.3,/,/,0.9
COC(=O)c1nn(-c2ccccc2)c(Cl)c1/C=N/OCc1c(Cl)cccc1Cl,-2.4,5.2,-0.6,0.5,/,5.1,3.1,6.8
O=C(NCc1ccc(F)cc1)C1CCCN(S(=O)(=O)c2ccc(-n3cnnn3)cc2)C1 (stereo unspecified),0.1,-9.8,-6.0,0.0,4.0,-1.4,2.1,5.2
O=C(CNC(=O)c1ccccc1Br)N/N=C/c1ccccc1O,-0.1,-6.9,19.2,?,/,9.1,-3.0,-8.7
O=C(CNC(=O)N1CC(=O)Nc2ccccc21)Nc1ccc(Cl)cc1,10.4,2.4,0.6,1.0,2.9,-2.8,-2.7,-0.3
CCN(CC(=O)NC(=O)NCc1ccco1)Cc1nc2ccccc2c(=O)[nH]1,-0.1,-1.2,-9.4,0.3,1.4,-0.3,-44.3,2.6
CN(C(=O)CSc1nc(O)cc(=O)n1-c1ccccc1F)c1ccccc1,-2.8,-2.0,-0.5,-0.2,4.9,-1.4,-1.6,-2.0
O=C(CSc1ccccc1)Nc1nnc(/C=C/c2ccccc2)s1,0.5,-3.8,3.4,-0.3,-249.4,-0.7,-12.3,-4.0
O=C1CC(c2ccccc2)NN1 (stereo unspecified),-5.1,-1.3,/,0.7,0.6,/,/,0.5
# New compounds follow.
SMILES,Beta cell apopt,B2AR ag,Calb FLC,Bfl-1 A1 inh,UCH37 DUB inh,RanGTP-Impb inh,T cruzi inh,LANA-H2A inh
CCOc1cccc(C2C(C(=O)c3ccco3)=C(O)C(=O)N2Cc2ccncc2)c1 (stereo unspecified),-8.8,-0.6,-4.5,-0.6,7.4,-1.3,-12.4,-54.8
CCN(CC)P(=O)(C(NC(=O)OC)C(F)(F)C(F)(F)C(F)(F)C(F)F)N(CC)CC (stereo unspecified),-11.2,-1.1,4.3,0.0,3.3,-3.2,-0.9,-0.2
Cc1cccc(NC(=O)c2ccc3c(c2)CCN3S(C)(=O)=O)c1C,/,1.8,3.9,-0.4,3.1,4.7,7.2,-2.7
Cc1ccccc1-c1cc(C(=O)Nc2nc3c(s2)CCCC3)c2ccccc2n1,10.4,10.6,5.2,0.9,-0.3,1.3,?,-0.7
COc1ccc(/C=C/C(=O)C2CC2)cc1COc1cccc(C)c1C,/,-1.9,-1.5,0.6,3.5,0.4,10.1,1.9
CC(C)(C)c1cc(C(=O)N/N=C/c2ccc([N+](=O)[O-])s2)n[nH]1,111.3*,-5.4,5.5,-0.5,/,-2.0,57.6*,9.6
O=C(COc1cccc(C(F)(F)F)c1)NCC(c1ccco1)N1CCCC1 (stereo unspecified),-6.8,2.2,/,0.1,2.8,/,/,5.4

# Part of the list above, with bars between the fields.
structure | Beta cell apopt | B2AR ag | Calb FLC | Bfl-1 A1 inh | UCH37 DUB inh | RanGTP-Impb inh | T cruzi inh | LANA-H2A inh
O=C(NCc1ccc(F)cc1)C1CCCN(S(=O)(=O)c2ccc(-n3cnnn3)cc2)C1 (stereo unspecified) | 0.1 | -9.8 | -6.0 | 0.0 | 4.0 | -1.4 | 2.1 | 5.2
O=C(CNC(=O)c1ccccc1Br)N/N=C/c1ccccc1O | -0.1 | -6.9 | 19.2 | ? | / | 9.1 | -3.0 | -8.7
O=C(CNC(=O)N1CC(=O)Nc2ccccc21)Nc1ccc(Cl)cc1 | 10.4 | 2.4 | 0.6 | 1.0 | 2.9 | -2.8 | -2.7 | -0.3
CCN(CC(=O)NC(=O)NCc1ccco1)Cc1nc2ccccc2c(=O)[nH]1 | -0.1 | -1.2 | -9.4 | 0.3 | 1.4 | -0.3 | -44.3 | 2.6
CN(C(=O)CSc1nc(O)cc(=O)n1-c1ccccc1F)c1ccccc1 | -2.8 | -2.0 | -0.5 | -0.2 | 4.9 | -1.4 | -1.6 | -2.0
O=C(CSc1ccccc1)Nc1nnc(/C=C/c2ccccc2)s1 | 0.5 | -3.8 | 3.4 | -0.3 | -249.4 | -0.7 | -12.3 | -4.0
O=C1CC(c2ccccc2)NN1 (stereo unspecified) | -5.1 | -1.3 | / | 0.7 | 0.6 | / | / | 0.5
CCOc1cccc(C2C(C(=O)c3ccco3)=C(O)C(=O)N2Cc2ccncc2)c1 (stereo unspecified) | -8.8 | -0.6 | -4.5 | -0.6 | 7.4 | -1.3 | -12.4 | -54.8
CCN(CC)P(=O)(C(NC(=O)OC)C(F)(F)C(F)(F)C(F)(F)C(F)F)N(CC)CC (stereo unspecified) | -11.2 | -1.1 | 4.3 | 0.0 | 3.3 | -3.2 | -0.9 | -0.2
Cc1cccc(NC(=O)c2ccc3c(c2)CCN3S(C)(=O)=O)c1C | / | 1.8 | 3.9 | -0.4 | 3.1 | 4.7 | 7.2 | -2.7
Cc1ccccc1-c1cc(C(=O)Nc2nc3c(s2)CCCC3)c2ccccc2n1 | 10.4 | 10.6 | 5.2 | 0.9 | -0.3 | 1.3 | ? | -0.7
COc1ccc(/C=C/C(=O)C2CC2)cc1COc1cccc(C)c1C | / | -1.9 | -1.5 | 0.6 | 3.5 | 0.4 | 10.1 | 1.9
CC(C)(C)c1cc(C(=O)N/N=C/c2ccc([N+](=O)[O-])s2)n[nH]1 | 111.3* | -5.4 | 5.5 | -0.5 | / | -2.0 | 57.6* | 9.6
O=C(COc1cccc(C(F)(F)F)c1)NCC(c1ccco1)N1CCCC1 (stereo unspecified) | -6.8 | 2.2 | / | 0.1 | 2.8 | / | / | 5.4
